# MenB inh: blocks the Mycobacterium tuberculosis MenB enzyme | inhibition, %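 (about 12 µg/mL by stock and volumes)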 | AID 540299 | P9WNP5 | MenB enzyme assay, absorbance read-out; some hits fall short of the stated cut | hit rate 0.43% among 100,000;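 active = mean of two replicates above 30%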;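 also: 0% = no compound and 100% = wells with inactive enzyme; the first replicate is given; strong numbers were not always called active; inactives centre near -10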
# MbtI inh: MbtI salicylate synthase inhibition; P9WFX0; purified MbtI enzyme, fluorescence intensity read-out; inhibition, %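 (about 17 µg/mL by stock and volumes)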; hit rate 0.89% among 100,000; AID 493033;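 active = above 50% in both replicates, above 80% if mildly self-fluorescent; inactive = the rest, strongly fluorescent compounds included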;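 also: 0% = mean of negative and 100% = mean of positive controls; one replicate is shown; some compounds called inactive have numbers as strong as hits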
# Target sequence (P9WFX0 whole entry, looked up): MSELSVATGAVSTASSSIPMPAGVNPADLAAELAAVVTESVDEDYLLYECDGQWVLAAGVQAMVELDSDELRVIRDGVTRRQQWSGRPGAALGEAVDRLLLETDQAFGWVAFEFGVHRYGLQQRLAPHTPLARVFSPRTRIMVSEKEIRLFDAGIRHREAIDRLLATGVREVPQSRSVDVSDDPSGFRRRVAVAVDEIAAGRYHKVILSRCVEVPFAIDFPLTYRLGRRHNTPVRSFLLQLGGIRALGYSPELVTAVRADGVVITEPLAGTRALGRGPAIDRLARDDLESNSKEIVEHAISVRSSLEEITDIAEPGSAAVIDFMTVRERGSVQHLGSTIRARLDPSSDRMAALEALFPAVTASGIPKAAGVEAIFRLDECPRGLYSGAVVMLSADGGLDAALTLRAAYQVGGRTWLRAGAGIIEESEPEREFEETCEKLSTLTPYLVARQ
# Polio RdRp inh: inhibitors of poliovirus RNA polymerase binding and polymerization; P03300; poliovirus polymerase elongation, fluorescence polarization; hits give low values; % elongation, % (compound at 16.7 µg/mL); hit rate 0.66% among 150,000; AID 588519; in the data active = % elongation below about 90%; also: some results filed as inactive read as strong as hits
# Target sequence (P03300 1749-2209 limits assumed): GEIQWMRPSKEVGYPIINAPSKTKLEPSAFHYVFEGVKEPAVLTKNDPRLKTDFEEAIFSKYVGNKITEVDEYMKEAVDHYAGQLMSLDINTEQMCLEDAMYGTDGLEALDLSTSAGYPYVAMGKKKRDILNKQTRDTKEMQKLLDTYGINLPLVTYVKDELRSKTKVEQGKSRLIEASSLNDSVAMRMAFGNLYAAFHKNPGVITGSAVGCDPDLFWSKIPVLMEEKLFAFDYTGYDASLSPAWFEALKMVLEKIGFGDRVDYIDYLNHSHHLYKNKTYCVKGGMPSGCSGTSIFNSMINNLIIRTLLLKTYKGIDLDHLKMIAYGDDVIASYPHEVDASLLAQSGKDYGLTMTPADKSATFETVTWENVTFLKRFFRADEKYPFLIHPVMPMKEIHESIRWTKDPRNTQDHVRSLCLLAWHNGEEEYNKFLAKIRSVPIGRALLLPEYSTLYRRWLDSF
# Polio RdRp inh intensity: recorded beside Polio RdRp inh, whose call it bears; % elongation; measured here: total intensity read-out; formula for this scale not given here;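 total fluorescence in place of polarization; lower means less elongation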
# An asterisk follows results filed as active; . = no result given; & = joins results of further samples.
smiles	Polio RdRp inh	Polio RdRp inh intensity	MbtI inh	MenB inh
CCOc1ccc(-n2c(SCC(=O)O)nc3ccccc32)cc1	100.0	95.0	11.6	-2.5
O=C1CCCC2(O)C1C(c1ccc(Cl)cc1Cl)NC(=O)N2Cc1ccccc1 (configuration not stated)	98.0	96.0	21.4	10.1
Fc1cccc(/C=N/n2cnnc2)c1	103.0	99.0	-7.7	.
CCNC(=O)c1ccc(OCc2c(C)noc2C)c(OC)c1	99.0	106.0	6.4	-20.6
COC(=O)CC1C(=O)NCCN1S(=O)(=O)c1c(C)c(C)c(C)c(C)c1C (configuration not stated)	98.0	100.0	-0.5	15.3
CCc1cc2c3c(c1)C1(C(=O)N3C(C)(C)CC2C)C(C#N)=C(N)N2C(=C1C#N)Nc1ccccc12 (configuration not stated)	98.0	103.0	21.8	-13.2
CCc1nnc2c(NC)nc3ccccc3n12	103.0	103.0	3.9	-7.8
COC(=O)c1ccc(C(=O)Nc2ccc3nc(C4CCCCC4)[nH]c3c2)cc1	101.0	105.0	-0.3	-13.1
COc1ccc(OCCN2CCN(C3CC(=O)N(CCC(C)C)C3=O)CC2)cc1 (configuration not stated)	104.0	100.0	4.6	-20.2
Cc1ccc(S(=O)(=O)NN=C(Cn2nnc3ccccc32)Cn2nnc3ccccc32)cc1	100.0	105.0	-6.9	5.0
Cc1ccc(Nc2nc(N)nc(CSc3cc(C)c4ccccc4n3)n2)cc1	152.0	192.0	44.3	-11.0
CC12CCC3C(CCC4CC(=O)CC43C)C1CCC2O (configuration not stated)	103.0	101.0	-14.2	-48.9
Cc1ccc(SCC(=O)NC2CC2)cc1	100.0	103.0	-11.1	-11.9
CCC1(CC)C(=O)NC(=O)N=C1N	100.0	100.0	5.2	-41.7
CC(Sc1nc2ccccc2[nH]1)C(=O)Nc1ccc(S(N)(=O)=O)cc1 (configuration not stated)	103.0	102.0	9.2	13.9
O=C(O)C1C2C=CC(O2)C1C(=O)Nc1ccc(S(=O)(=O)NCCc2ccccc2)cc1 (configuration not stated)	100.0	103.0	6.0	-17.9
Cc1ccc(-c2nnc(Nc3ccccc3)c3ccccc23)cc1S(=O)(=O)NCc1ccccn1	105.0	87.0	.	-19.4
CC1(NC(=O)CCN2c3ccccc3Sc3ccccc32)CCS(=O)(=O)C1 (configuration not stated)	103.0	109.0	-3.4	1.1
COCC(=O)Nc1cc(F)cc(F)c1	99.0	99.0	-6.4	-29.6
CN1C2CCC1CC(OC(=O)C(CO)c1ccccc1)C2 (configuration not stated)	96.0&100.0	102.0&99.0	-10.2&-22.9	-4.7&9.6
COC(=O)c1ccc(N2Cc3cccc(OC)c3Oc3ncccc32)s1	103.0	107.0	86.8	-29.8
CC(C)(C)C(=O)NC1CCN(CC(=O)N(C2CCCCC2)C2CCCCC2)CC1	100.0	103.0	-1.1	4.9
CCC(Sc1nc2ccccc2n1CC)C(=O)O (configuration not stated)	102.0	105.0	.	-11.2
Oc1ccc(-c2onc3ccc(Cl)cc23)cc1	89.0	137.0	-7.3	-98.8
NC(=O)N1CCCC1C(=O)Nc1ccc2c(c1)CCC2 (configuration not stated)	105.0	109.0	-7.3	-2.9
CN(C)CCNc1cnn(-c2ccccc2)c(=O)c1Cl	98.0	98.0	20.0	-15.7
Cc1cc(C)n(CCCO)c(=O)c1C#N	102.0	102.0	88.6	-27.1
Cn1c(SCC(=O)c2ccc3[nH]c(=O)oc3c2)nnc1C1COc2ccccc2O1 (configuration not stated)	104.0	122.0	5.2	-3.1
CCOc1ccc(/C(O)=C2/C(=O)C(=O)N(CCN3CCOCC3)C23C(=O)N(C)c2ccccc23)cc1 (configuration not stated)	100.0	100.0	8.7	-13.8
O=C(CCN1C(=O)/C(=C\c2ccco2)SC1=S)NCCc1ccccc1	99.0	102.0	16.4	-161.7

# The last seven entries of the section above open the next one:
smiles	Polio RdRp inh	Polio RdRp inh intensity	MbtI inh	MenB inh
Oc1ccc(-c2onc3ccc(Cl)cc23)cc1	89.0	137.0	-7.3	-98.8
NC(=O)N1CCCC1C(=O)Nc1ccc2c(c1)CCC2 (configuration not stated)	105.0	109.0	-7.3	-2.9
CN(C)CCNc1cnn(-c2ccccc2)c(=O)c1Cl	98.0	98.0	20.0	-15.7
Cc1cc(C)n(CCCO)c(=O)c1C#N	102.0	102.0	88.6	-27.1
Cn1c(SCC(=O)c2ccc3[nH]c(=O)oc3c2)nnc1C1COc2ccccc2O1 (configuration not stated)	104.0	122.0	5.2	-3.1
CCOc1ccc(/C(O)=C2/C(=O)C(=O)N(CCN3CCOCC3)C23C(=O)N(C)c2ccccc23)cc1 (configuration not stated)	100.0	100.0	8.7	-13.8
O=C(CCN1C(=O)/C(=C\c2ccco2)SC1=S)NCCc1ccccc1	99.0	102.0	16.4	-161.7
O=C(Nc1ccc(Cl)c(Cl)c1)Nc1ccnn1C1CCCCC1	105.0	113.0	-10.1	-10.7
CS(=O)(=O)n1nc(-c2ccco2)nc1SCc1ccccc1	100.0	101.0	1.7	-2.3
COC(=O)c1sc2ncn(Cc3ccc(C)cc3)c(=O)c2c1C	103.0	113.0	.	-6.2
S=c1nc(C2COc3ccccc3O2)[nH][nH]1 (configuration not stated)	106.0	106.0	.	6.6
Cc1ccc(-c2nc(CSCC(=O)Nc3cc(C)on3)c(C)o2)cc1	105.0	101.0	5.9	11.0
CC1CCCCN1c1nnc(NC(=O)c2cc(-c3ccc(Br)cc3)on2)s1 (configuration not stated)	105.0	101.0	-3.2	-23.2
C[C@H](NC(=O)Cc1cccc2ccccc12)C(=O)NC1CC1	106.0	113.0	1.0	-9.0
COc1ccc(CCN=Cc2ccccc2O)cc1OC	100.0	109.0	-8.6	-8.8
COc1cccc(CN2COc3ccc4c(-c5ccccc5)cc(=O)oc4c3C2)c1	102.0	103.0	1.9	-14.0
NNC(=O)c1cccnc1N	103.0	103.0	0.1	-6.4
CCCCN1C(=O)/C(=C2/C(=O)N(Cc3ccccc3)c3ccccc32)SC1=S	104.0	104.0	-11.6	.
c1ccc(-c2nc3ccccc3nc2-c2ccccn2)nc1	100.0	105.0	-8.5	3.4
CC(=C1C(=O)c2ccccc2C1=O)N1CCN(CCO)CC1	100.0	103.0	21.4	-7.2
Cc1cccc2sc(NNC(=O)c3ccc(S(=O)(=O)N4CCCC4)cc3)nc12	101.0	102.0	4.8	-54.8
CCC(CO)Nc1ncnc2sc(C)c(C)c12 (configuration not stated)	97.0	97.0	7.0	-2.5
O=C(Nc1ccc(Cl)cc1)c1ccccc1	103.0	104.0	4.2	13.4
O=C(Cn1cccc1C(=O)c1ccccc1)NC1CC1	102.0	103.0	-10.2	-7.5
Cn1c(-c2ccccc2)c(C(=O)CNCc2ccco2)c2ccccc21	109.0	107.0	-52.4	0.4
O=C1NC(c2ccccc2)(c2ccccc2)C(=O)N1Cc1ncc(-c2ccccc2)o1	107.0	106.0	-8.0	-27.4
COC(=O)CC1C(=O)NCCN1C(=O)c1ccc(-c2ccccc2)cc1 (configuration not stated)	104.0	98.0	0.0	5.7
CC(C)n1c(Nc2ccccc2)nc2ccccc21	101.0	101.0	-106.6	-26.7
COc1ccc(OC)c(NC(=S)NCc2ccccc2)c1	100.0	97.0	9.4	-25.0
Cc1c2cnc3nn(-c4ccccc4)c(=O)c-3cc2c(C)n1C	102.0	101.0	15.6	-2.8
COc1ccc(/C=C2\COc3ccccc3C2=O)cc1	100.0	96.0	2.9	.
Cc1c(C(=O)N2CCCC2)oc2ccc3c(c12)C(=O)CC(C)(C)O3	105.0	99.0	16.2	11.3
CC(=O)Nc1ccc(SCc2ncc(-c3ccccc3)o2)cc1	104.0	109.0	53.5	-24.9
COCCn1c(SCC(=O)c2ccc(CNC(C)=O)o2)nc2ccccc2c1=O	101.0	98.0	3.0	-10.0
COc1cc2c(C(=O)NCc3ccc4c(c3)OCO4)cn(CC(C)C)c(=O)c2cc1OC	100.0	103.0	-9.8	12.7
Cc1oc2ncnc(NC3CCCC3)c2c1C(=O)O	100.0	104.0	-2.5	9.3
CCS(=O)(=O)Nc1c(NC)c2ccccc2oc1=O	104.0	101.0	5.0	-17.2
COc1cc(NC(=O)C2CC(=O)NC3=C2C(=O)CC(C)(C)C3)c(OC)cc1Cl (configuration not stated)	101.0	104.0	24.6	7.2
Cc1nc2ccccc2n1-c1ccccc1	100.0	103.0	-2.8	-3.5
O=S(=O)(NCc1ccccc1)c1cccc(C(F)(F)F)c1	104.0	106.0	-45.3	-146.7
CCCSc1nnc2c(n1)OC(c1ccc(N(C)C)cc1)Nc1ccccc1-2 (configuration not stated)	103.0	102.0	-0.2	3.1
O=C(C1CCN(c2nccc(C(F)(F)F)n2)CC1)N1C=CC(C(F)(F)F)=NCC1	98.0	100.0	5.3	-1.0
CCCNS(=O)(=O)c1ccc(CCC(=O)NCC2CCCO2)cc1 (configuration not stated)	100.0	105.0	-5.7	20.5
Cc1cc(C)c(C#N)c(SCC(=O)N(CC(C)C)C2CCS(=O)(=O)C2)n1 (configuration not stated)	.	.	1.1	-15.3
N#Cc1ccccc1NC(=O)CNCC1CCCO1 (configuration not stated)	99.0	102.0	-6.5	-2.4
Cc1ccc(NC(=S)N(Cc2cn(C)c3ccccc23)C(C)C)cc1	104.0	107.0	4.3	-51.3
O=C(N/N=C/C1=COCCO1)c1cccnc1	107.0	110.0	15.0	-2.0
Cc1nnc2c(Nc3ccc4c(c3)OCO4)nc3ccccc3n12	98.0	98.0	-3.2	-3.9
C#CCN1C(=O)S/C(=C/c2ccc3c(c2)OCO3)C1=O	103.0	105.0	-9.9	-52.7
CCOC(=O)c1cc(-c2ccc(OC)c(S(=O)(=O)NC3CC3)c2)on1	101.0	103.0	36.0	13.3
N#C/C(=C\c1cn(Cc2ccc(C#N)cc2)c2ccccc12)C(=O)NCc1ccco1	101.0	102.0	-14.8	-10.3
O=S(=O)(Nc1cccc(Cl)c1)c1cccc(-n2cnnn2)c1	99.0	102.0	3.2	5.8
COc1ccc(C(=O)Cn2cnc3c(cnn3C(C)(C)C)c2=O)cc1	99.0	101.0	0.8	3.6
Cc1cc(=O)oc2cc3c(cc12)OCCN3	102.0	103.0	57.2	-343.6
CCC(=O)Nc1ccc(N2CCN(C(=O)C(C)C)CC2)cc1	100.0	98.0	.	2.2
CSc1sc(C(=O)O)c(C)c1S(=O)(=O)c1ccc(Cl)cc1	104.0	107.0	-6.7	1.8
Clc1ccc(OCc2nc3ccccc3[nH]2)cc1	105.0	100.0	-14.2	-32.0
Cc1cccc(N2CCN(C(=O)Cn3cnc4onc(-c5ccc(F)cc5)c4c3=O)CC2C)c1 (configuration not stated)	104.0	102.0	-14.4	-27.0
N#Cc1cnc(SCC(=O)Nc2ccc(N3CCOCC3)cc2)nc1N	105.0	103.0	-5.3	-35.3
Cc1ccccc1CNCc1cccs1	102.0	106.0	-6.2	-25.2
O=S(=O)(Nc1ccccc1OC(F)F)c1cccc2nsnc12	98.0	100.0	2.5	5.3
COCc1c(C(=O)OCC(=O)Nc2cc(-c3ccccc3)nn2-c2ccccc2)oc2ccccc12	107.0	114.0	-4.2	2.4
Cc1ccc(C(=O)OCC(=O)C23CC4CC(CC(C4)C2)C3)c(O)c1	101.0	106.0	1.1	-7.1
O=C(O)CNC(=O)c1cncc(O)c1	106.0	101.0	-418.9	-8.9
CCN(CC)CC(O)Cn1ccc2ccccc21 (configuration not stated)	102.0	100.0	-4.3	8.7
CC(C)N(C(C)C)S(=O)(=O)c1ccccc1	103.0	102.0	-25.6	-10.9
COc1ccccc1C(=O)C1C(=O)NC2(C)CC1c1cc(Cl)ccc1O2 (configuration not stated)	100.0	95.0	1.6	-5.2

# Continued.
smiles	Polio RdRp inh	Polio RdRp inh intensity	MbtI inh	MenB inh
CSc1nnc(Cn2c(=O)sc3ccccc32)n1-c1cccc(Cl)c1	101.0	102.0	8.0	-10.7
c1ccc2oc(SCc3nc4c5c6c(sc5ncn4n3)CCCC6)nc2c1	103.0	102.0	-18.6	-26.4
CCn1cc(CCCC(=O)NCCc2ccc(Cl)cc2)c2ccccc21	100.0	96.0	3.8	-18.5
CC(=O)Nc1ccc(OC(=O)COc2cccc(C)c2)cc1	102.0	103.0	-2.6	-4.1
CCC(=O)n1c(=O)n(C(=O)CC)c2ccccc21	107.0	108.0	0.3	-26.1
Cc1cc(C)c2c(=O)[nH]c(SCCOc3ccccc3)nc2n1	96.0	84.0	3.2	-29.7
COC(=O)c1sc(N)c(C(=O)OC)c1CN1C(=O)c2ccccc2S1(=O)=O	107.0	108.0	-2.3	-8.4
COC(=O)c1ccc(-c2ccco2)n1CC(=O)N1CCCC1	101.0	97.0	15.3	-13.1
O=C(c1cnn2ccccc12)N1CCC(C(O)(c2ccccc2)c2ccccc2)CC1	100.0	99.0	-20.2	-10.1
COc1cc(C(CC(=O)O)N2Cc3ccccc3C2=O)cc(OC)c1OC (configuration not stated)	102.0	104.0	0.1	4.7
Cc1cc(C)c2c(c1)NC(=O)CC2c1cccc(Cl)c1Cl (configuration not stated)	101.0	103.0	-5.6	-21.2

# Assay outcomes from PubChem BioAssay.

# Hits appear at their usual frequency; 1.7% or so of the library scored in one or more.
